PTHR1 agonist: qHTS for PTHR1 Agonists: Primary Screen. HEK293 GP2 PTHR1 cells, GloSensor cAMP luminescence, 1 h. Parathyroid hormone/parathyroid hormone-related peptide receptor (Homo sapiens), Q03431. Potency, µM (highest dose often 115 µM), inactives show at the top dose activation, usual class: activators. actives 0.075% (n = 410,000); further: nearly all actives have a fitted effect of over 55% in size; some results filed as inactive show a strong effect at the top dose; inactives centre near -15; many of its hits are not listed in these tables
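HEK-293-derived GP2 cells expressing PTHR1 and a GloSensor cAMP reporter, 3,000/well, plated overnight, given luciferin plus IBMX (each 0.5 mM as added) for 1 h at 37 °C, then compound for 1 h at 37 °C. Luminescence was read after 15 min at room temperature.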
TDP43 rescue: qHTS of TDP-43 Inhibitors. TDP-43 expressing yeast growth rescue, BacTiter-Glo, 24 h. Potency, µM (titrated, usually from 46.1 µM), without a hit: top-dose growth rescue (activation), hits mostly activators. actives 1.8% (n = 410,000); further: % of control where 0% means no effect; nearly all actives have a fitted effect of over 50% in size
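Yeast cells expressing TDP-43 under galactose induction are exposed to compounds for 24 hr at 30 deg C. BacTiter-Glo luminescence measures growth, so protective compounds score as activators.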
GLP1R inv ag: qHTS of GLP-1 Receptor Inverse Agonists (Inhibition Mode); HEK293 GLP-1R CRE-luciferase, luminescence, 24 h; GLP-1R form is constitutively active; actives 1.6% (n = 410,000); Glucagon-like peptide 1 receptor (Homo sapiens), P43220; AID 624417, 2012; Potency, µM (top dose mostly 38.3 µM), for the others: top-dose activity change, negative = inhibition, hits mostly inhibitors; further: on the % scale 0 is the no-effect control and ±100 the full control effect; nearly all actives have a fitted effect of over 55% in size
Target sequence (P43220 whole entry, looked up): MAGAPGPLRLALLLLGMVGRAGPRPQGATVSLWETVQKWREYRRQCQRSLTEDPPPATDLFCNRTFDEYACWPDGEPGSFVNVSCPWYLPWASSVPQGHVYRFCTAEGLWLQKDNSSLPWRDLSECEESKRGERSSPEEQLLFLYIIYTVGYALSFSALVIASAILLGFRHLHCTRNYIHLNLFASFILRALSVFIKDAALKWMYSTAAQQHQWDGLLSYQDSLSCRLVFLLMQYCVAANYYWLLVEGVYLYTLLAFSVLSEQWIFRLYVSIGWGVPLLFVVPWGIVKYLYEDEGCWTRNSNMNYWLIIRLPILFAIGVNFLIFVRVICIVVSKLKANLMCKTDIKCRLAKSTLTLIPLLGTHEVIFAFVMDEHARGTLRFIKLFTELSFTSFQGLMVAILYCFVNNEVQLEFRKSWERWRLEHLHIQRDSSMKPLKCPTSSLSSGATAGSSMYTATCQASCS
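Using stably transfected HEK293 (constitutively active GLP-1R, cAMP-luciferase reporter), compounds were incubated 24 hr and luciferase measured by luminescence.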
aSyn rescue: qHTS of alpha-syn Inhibitors. AID 652106, 2013. Potency, µM (top dose mostly 46.1 µM), without a hit: at the top dose growth rescue (activation), usual class: activators. actives 0.14% (n = 370,000). Yeast expressing alpha-synuclein, growth rescue, BacTiter-Glo, 24 h; further: % of control where 0% means no effect; nearly all actives have a fitted effect of over 65% in size
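Rescue of yeast growth: cells expressing toxic alpha-synuclein, induced in galactose at OD600 0.02, incubated with compound 24 h at 30 C. ATP luminescence quantified growth; inhibitors of toxicity appear as activators.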
GLP-1R agonist: qHTS of GLP-1 Receptor Agonists | HEK293 GLP-1R CRE-luciferase, luminescence, 4-6 h; cells express a hypersensitive GLP-1R form | actives 0.007% (n = 380,000) | AID 624172, 2012 | Glucagon-like peptide 1 receptor (Homo sapiens), P43220 | Potency, µM (highest dose often 45.6 µM), for inactives: at the highest dose activation, usual class: activators; further: % of control where 0% means no effect
The depositor's hits bear a star; & = joins results of further samples; [ ] = remark or other dose. The call rests on the fitted dose curve; in most records, active means well fitted curve in the direction sought with a large enough effect; inconclusive means small, poorly fitted or top-dose-only effect, or another doubt; inactive means no such curve, though single readings can be large; an effect the other way counts as inactive or inconclusive. Potency means the concentration at half of the fitted maximal effect. The list is partial. The share of hits here may be higher or lower than overall.

For COc1cccc(Nc2ncnc3ccccc23)c1 the results were PTHR1 agonist inactive, TDP43 rescue 7%, GLP1R inv ag 4%, aSyn rescue -2% and GLP-1R agonist 10%.
For CN(C)S(=O)(=O)c1ccc2c(c1)/C(=C/c1cc3c([nH]1)CCCC3)C(=O)N2 the results were PTHR1 agonist -21%, TDP43 rescue 29%, GLP1R inv ag 13%, aSyn rescue -3%&-5% and GLP-1R agonist 18%.
Screening CCCN[C@H]1CCc2nc(N)sc2C1 returned PTHR1 agonist -16%, TDP43 rescue 0%, GLP1R inv ag 32%[activator], aSyn rescue -4% and GLP-1R agonist -6%&9%.
Screening CC1(C)S[C@@H]2[C@H](NC(=O)[C@H](N)c3ccccc3)C(=O)N2[C@H]1C(=O)O returned PTHR1 agonist -24%, TDP43 rescue 19%&20%, GLP1R inv ag -8%&5%, aSyn rescue -4%&3% and GLP-1R agonist -2%&1%.
CC1(C)SC2C(NC(=O)C(N)c3ccccc3)C(=O)N2C1C(=O)O (centres undefined) was read as GLP-1R agonist -1%.
`CCCC(=O)Nc1ccc(OCC(O)CNC(C)C)c(C(C)=O)c1` (centres undefined) gave PTHR1 agonist inactive, TDP43 rescue 2%, GLP1R inv ag 7%, aSyn rescue -3% and GLP-1R agonist -1%.
Screening CC[N+](C)(C)c1cccc(O)c1 returned PTHR1 agonist inactive, TDP43 rescue 10%, GLP1R inv ag 4%, aSyn rescue -1%&0% and GLP-1R agonist -6%.
`CC(COc1ccccc1)N(CCCl)Cc1ccccc1` (centres undefined) gave PTHR1 agonist -20%, TDP43 rescue 15%, GLP1R inv ag -15%, aSyn rescue 4%&-7% and GLP-1R agonist 4%&15%.
For O=C(O)c1cc(=O)c2c(OCC(O)COc3cccc4oc(C(=O)O)cc(=O)c34)cccc2o1 the results were PTHR1 agonist -28%, TDP43 rescue 29%, GLP1R inv ag 6%, aSyn rescue 10% and GLP-1R agonist 10%&4%.
`CN=C(NC#N)NCCSCc1nc[nH]c1C` gave PTHR1 agonist -20%, TDP43 rescue 1%, GLP1R inv ag 4%, aSyn rescue 0%&0% and GLP-1R agonist 2%&15%.
Screening CC1(C)S[C@@H]2[C@H](NC(=O)[C@H](N)c3ccccc3)C(=O)N2[C@H]1C(=O)OC1OC(=O)c2ccccc21 (some centres undefined) returned PTHR1 agonist 0%, TDP43 rescue -19%, GLP1R inv ag 0%, aSyn rescue 2% and GLP-1R agonist -1%.
CC[N+](C)(C)Cc1ccccc1Br was read as PTHR1 agonist -20%, TDP43 rescue 22%, GLP1R inv ag 0%, aSyn rescue 2% and GLP-1R agonist -1%.
For CCN1/C(=C\C(C)=O)Sc2ccc(OC)cc21 the results were PTHR1 agonist -16%[57.5 µM], TDP43 rescue -10%, GLP1R inv ag -1%, aSyn rescue -8% and GLP-1R agonist 7%.
`C[C@H](C(=O)O)c1cccc(C(=O)c2ccccc2)c1` gave PTHR1 agonist -26%, TDP43 rescue 30%, GLP1R inv ag -9%, aSyn rescue 8% and GLP-1R agonist 1%.
`NC(CCC(=O)NC(CS)C(=O)NCC(=O)O)C(=O)O` (centres undefined) gave PTHR1 agonist -22%, TDP43 rescue 0%, GLP1R inv ag 3%, aSyn rescue 3% and GLP-1R agonist 3%.
For CCN(CC)C(=O)N1CCN(C)CC1 the results were PTHR1 agonist -43%[inhibitor], TDP43 rescue 0%, GLP1R inv ag 9%, aSyn rescue 1% and GLP-1R agonist -4%.
Screening CC(=O)OCC(=O)[C@@]12OC(C)(C)O[C@@H]1CC1C3C[C@H](F)C4=CC(=O)C=CC4(C)[C@@]3(F)C(O)CC12C (some centres undefined) returned PTHR1 agonist inactive, TDP43 rescue inconclusive, GLP1R inv ag -4%, aSyn rescue 4% and GLP-1R agonist 1%.
`CC(=O)OCC(=O)[C@@]1(O)CCC2C3CCC4=CC(=O)CCC4(C)C3C(=O)CC21C` (some centres undefined) gave PTHR1 agonist -1%, TDP43 rescue 0%, GLP1R inv ag 18%, aSyn rescue -1% and GLP-1R agonist -3%.
`NC(=O)c1cccnc1` gave PTHR1 agonist 10%, TDP43 rescue -26%, GLP1R inv ag 5%, aSyn rescue -10% and GLP-1R agonist -5%&0%.

Nothing new here: entries from further up.
Screening CCCN[C@H]1CCc2nc(N)sc2C1 returned PTHR1 agonist -16%, TDP43 rescue 0%, GLP1R inv ag 32%[activator], aSyn rescue -4% and GLP-1R agonist -6%&9%.
Screening CC1(C)S[C@@H]2[C@H](NC(=O)[C@H](N)c3ccccc3)C(=O)N2[C@H]1C(=O)O returned PTHR1 agonist -24%, TDP43 rescue 19%&20%, GLP1R inv ag -8%&5%, aSyn rescue -4%&3% and GLP-1R agonist -2%&1%.

In the list so far, these contain a carbonyl joined to an NH by a bond outside any ring:
Screening CC1(C)S[C@@H]2[C@H](NC(=O)[C@H](N)c3ccccc3)C(=O)N2[C@H]1C(=O)O returned PTHR1 agonist -24%, TDP43 rescue 19%&20%, GLP1R inv ag -8%&5%, aSyn rescue -4%&3% and GLP-1R agonist -2%&1%.
CC1(C)SC2C(NC(=O)C(N)c3ccccc3)C(=O)N2C1C(=O)O (centres undefined) was read as GLP-1R agonist -1%.
`CCCC(=O)Nc1ccc(OCC(O)CNC(C)C)c(C(C)=O)c1` (centres undefined) gave PTHR1 agonist inactive, TDP43 rescue 2%, GLP1R inv ag 7%, aSyn rescue -3% and GLP-1R agonist -1%.
Screening CC1(C)S[C@@H]2[C@H](NC(=O)[C@H](N)c3ccccc3)C(=O)N2[C@H]1C(=O)OC1OC(=O)c2ccccc21 (some centres undefined) returned PTHR1 agonist 0%, TDP43 rescue -19%, GLP1R inv ag 0%, aSyn rescue 2% and GLP-1R agonist -1%.
`NC(CCC(=O)NC(CS)C(=O)NCC(=O)O)C(=O)O` (centres undefined) gave PTHR1 agonist -22%, TDP43 rescue 0%, GLP1R inv ag 3%, aSyn rescue 3% and GLP-1R agonist 3%.
`NC(=O)c1cccnc1` gave PTHR1 agonist 10%, TDP43 rescue -26%, GLP1R inv ag 5%, aSyn rescue -10% and GLP-1R agonist -5%&0%.
